c-Myc SMM: binders of human c-Myc. P01106. small molecule microarray, His-c-Myc binding, anti-His fluorescence. calls only. actives 1.5% (n = 17,000). AID 624141;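 active means spot fluorescence over background with P-value below 7% in all four replicate spots, showing protein binding; compounds were printed on slides so no solution concentration is given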;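 further: score is binary with 100 for all four spots passing and 0 otherwise; about 2 pmol printed per array spot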
Target sequence (P01106 whole entry, looked up): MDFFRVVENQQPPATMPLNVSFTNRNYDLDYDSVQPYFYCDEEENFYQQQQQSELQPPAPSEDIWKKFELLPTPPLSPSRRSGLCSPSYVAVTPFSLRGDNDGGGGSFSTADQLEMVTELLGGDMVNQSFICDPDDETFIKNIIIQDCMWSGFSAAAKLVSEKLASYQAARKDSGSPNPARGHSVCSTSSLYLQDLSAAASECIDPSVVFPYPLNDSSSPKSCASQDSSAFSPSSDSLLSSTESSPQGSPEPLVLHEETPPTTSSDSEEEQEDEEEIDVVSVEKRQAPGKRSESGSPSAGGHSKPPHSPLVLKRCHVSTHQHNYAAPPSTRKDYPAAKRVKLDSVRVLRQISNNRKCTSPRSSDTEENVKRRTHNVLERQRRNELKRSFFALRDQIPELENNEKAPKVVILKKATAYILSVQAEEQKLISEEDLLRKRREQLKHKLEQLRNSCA
p53 mut binder: binders of human mutant p53 | calls only | small molecule microarray binding, anti-GST fluorescence | actives 0.4% (n = 17,000);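 active means compounds whose four printed spots each glow above background more than chance allows, each with a p-value under 7%; compounds were printed on slides so no solution concentration is given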;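 further: about 2 pmol printed per array spot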
ID4 binder: binds human ID4 protein on microarray | P47928 | calls only | small molecule microarray, Flag-ID4 binding, fluorescence F/B | actives 1.2% (n = 31,000);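 active means spot signal over background at p below 0.07 in all four prints; compounds were printed on slides so no solution concentration is given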;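 further: a binder raises fluorescence above local background on the spot; about 2 pmol printed per array spot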
Target sequence (P47928 whole entry, looked up): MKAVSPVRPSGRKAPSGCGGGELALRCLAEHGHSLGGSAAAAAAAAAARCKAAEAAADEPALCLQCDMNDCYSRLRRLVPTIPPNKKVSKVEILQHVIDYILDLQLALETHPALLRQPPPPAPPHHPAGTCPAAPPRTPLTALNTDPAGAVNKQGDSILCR
STAT3 binder: binders of human STAT3. AID 624138. P40763. actives 0.2% (n = 17,000). Small molecule microarray, His-STAT3 binding, anti-His fluorescence. calls only;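 active means compounds whose four printed spots each show fluorescence over background unusually high for their array block, chance value under 7%; compounds were printed on slides so no solution concentration is given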;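 further: about 2 pmol printed per array spot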
Calls only; i = inactive; nt = no result given; + = active, no number.

item | mol | c-Myc SMM | p53 mut binder | ID4 binder | STAT3 binder
1 | C[C@@H]1CN([C@@H](C)CO)C(=O)c2cc(NS(=O)(=O)c3cn(C)cn3)ccc2O[C@H]1CN(C)Cc1ccc(C(F)(F)F)cc1 | i | i | nt | i
2 | O=C(O)CCSc1nc2ccccc2s1 | i | i | i | i
3 | CNC[C@@H]1Oc2ccc(NC(=O)Nc3c(C)noc3C)cc2CC(=O)N([C@H](C)CO)C[C@@H]1C | i | i | i | i
4 | COc1c(C(=O)O)ccc2c1CCC(C)(C)O2 | i | i | i | i
5 | C[C@H](CO)N1C[C@H](C)[C@H](CN(C)Cc2ccc3c(c2)OCO3)Oc2c(NS(C)(=O)=O)cccc2C1=O | i | i | i | i
6 | C[C@H](CO)N1C[C@H](C)[C@H](CN(C)S(=O)(=O)c2cn(C)cn2)Oc2ncc(C#Cc3ccccc3)cc2C1=O | i | i | i | i
7 | CCO[C@H]1OC(C(=O)NC2CC2)=C[C@@H](c2ccc(Br)cc2)[C@@H]1CCCO | i | i | i | i
8 | CCCC(O)C#Cc1cnc2c(c1)C(=O)N([C@H](C)CO)C[C@H](C)[C@H](CN(C)C(=O)NC(C)C)O2 (some centres not stated) | i | i | i | i
9 | CC/C=C\C/C=C\C/C=C\CCCCCCCCCC(=O)O | i | i | i | i
10 | C[C@@H]1CCCCO[C@@H](CN(C)Cc2ccc(Cl)c(Cl)c2)[C@@H](C)CN([C@@H](C)CO)C(=O)c2cc(NS(C)(=O)=O)ccc2O1 | i | i | nt | i
11 | COc1cccc(-c2cnc3c(c2)C(=O)N([C@H](C)CO)C[C@H](C)[C@H](CN(C)S(C)(=O)=O)O3)c1 | i | i | nt | i
12 | CC(C)CNc1nc(Oc2ccc(=O)[nH]n2)nc(N(C)C)n1 | i | i | i | i
13 | C[C@@H]1CN([C@H](C)CO)C(=O)c2cccc(NC(=O)c3ccncc3)c2O[C@H]1CN(C)CC1CC1 | i | i | i | i
14 | C[C@H](CO)N1C[C@H](C)[C@H](CN(C)S(=O)(=O)c2ccc(Cl)cc2)Oc2c(NC(=O)Nc3ccc(C(F)(F)F)cc3)cccc2C1=O | i | i | i | i
15 | C[C@H]1CN([C@@H](C)CO)C(=O)c2cccc(NS(=O)(=O)c3cccs3)c2O[C@H]1CN(C)Cc1ccc2c(c1)OCO2 | i | i | i | i
16 | C=C[C@](C)(CC[C@@]1(C)[C@H](C)C[C@H](O[C@@H]2O[C@@H](C)[C@H](O[C@@H]3O[C@H](COC(C)=O)[C@@H](O)[C@H](O)[C@H]3O)[C@@H](O)[C@H]2O)[C@@]2(C)C(C)=CCC[C@H]12)O[C@@H]1O[C@H](C)[C@H](O[C@@H]2O[C@@H](C)[C@H](O)[C@@H](O)[C@H]2O)[C@H](O)[C@H]1O | i | i | nt | i
17 | OC(COc1ccc2ccccc2c1Br)Cn1ccnc1 (configuration not stated) | i | i | i | i
18 | COc1ccc(OC)c(NC(=O)c2c(NC(=O)CN3CCOCC3)sc3c2CCC3)c1 | i | i | i | i
19 | Cc1ccccc1-c1nnc(SCC(=O)Nc2cccc(Br)c2)n1C | i | i | i | i
20 | C[C@@H]1CN([C@H](C)CO)C(=O)c2cc(NC(=O)Nc3ccc(F)cc3)ccc2O[C@H]1CN(C)C(=O)Nc1cccc2ccccc12 | i | i | nt | i
21 | C[C@@H]1CN([C@@H](C)CO)C(=O)c2cc(NC(=O)CCN3CCOCC3)ccc2O[C@@H]1CN(C)C(=O)Nc1ccccc1 | i | i | i | i
22 | C[C@@H]1CN([C@@H](C)CO)C(=O)c2cc(NC(=O)CCCN(C)C)ccc2O[C@@H](C)CCCCO[C@@H]1CN(C)Cc1ccc2c(c1)OCO2 | i | i | i | i
23 | O=C(Cn1cc(Br)c([N+](=O)[O-])n1)Nc1ccccc1F | i | i | i | i
24 | Cc1cc(C)nc(SCC(=O)c2ccc3c(c2)OCCO3)n1 | i | i | i | i
25 | COc1ccc(S(=O)(=O)NC2CCN(Cc3cccc(OCCO)c3)CC2)cc1 | i | i | nt | i
26 | C[C@H](CO)N1C[C@H](C)[C@@H](CN(C)CC2CC2)Oc2c(NC(=O)c3nc4ccccc4s3)cccc2C1=O | i | i | i | i
27 | C[C@@H]1CN([C@H](C)CO)C(=O)c2cc(NC(=O)Nc3ccc(C(F)(F)F)cc3)ccc2O[C@H]1CN(C)S(=O)(=O)c1ccc(Cl)cc1 | i | i | nt | i
28 | C[C@H]1CN([C@@H](C)CO)C(=O)c2cc(NC(=O)NC3CCCCC3)ccc2O[C@H]1CN(C)S(=O)(=O)c1ccccc1 | i | i | i | i
29 | CC(C)NC(=O)N(C)C[C@H]1OCCCC[C@H](C)Oc2ccc(NC(=O)c3ccncc3)cc2C(=O)N([C@@H](C)CO)C[C@H]1C | i | i | i | i
30 | C[C@@H]1CN([C@@H](C)CO)C(=O)Cc2cc(NS(=O)(=O)c3ccccc3)ccc2O[C@H]1CN(C)Cc1ccc2c(c1)OCO2 | i | i | i | i
31 | COc1ccc(CCNc2ccncn2)cc1OC | i | i | i | i
32 | C[C@@H]1CCCCO[C@H](CN(C)C(=O)Nc2cccc3ccccc23)[C@H](C)CN([C@@H](C)CO)C(=O)c2cc(N(C)C)ccc2O1 | i | i | i | i
33 | OCC1OC(OCC2OC(NCCc3ccc(O)cc3)C(O)C(O)C2O)C(O)C(O)C1O (configuration not stated) | i | i | i | i
34 | O=C1CC(NCc2cccnc2)C(=O)N1c1ccccc1 (configuration not stated) | i | i | i | i
35 | COc1ccc(S(=O)(=O)N(C)C[C@H]2Oc3c(NC(=O)Nc4c(C)noc4C)cccc3C(=O)N([C@@H](C)CO)C[C@H]2C)cc1 | i | i | i | i
36 | Cc1ccc(C)c(NC(=O)c2ccc(OCC(=O)Nc3ccccc3C)cc2)c1 | i | i | i | i
37 | Cc1ccc(C(=O)CSc2nnc(-c3ccccc3)n2-c2ccccc2)o1 | i | i | i | i
38 | COc1ccccc1C(=O)Nc1c(C)[nH]c(=O)[nH]c1=O | i | i | i | i
39 | C[C@H]1CCCCO[C@@H](CN(C)C)[C@@H](C)CN([C@@H](C)CO)C(=O)c2cc(NC(=O)Cc3ccccc3)ccc2O1 | i | i | i | i
40 | O=C(CCN1C(=O)C2C3C=CC(C4CC34)C2C1=O)Oc1ccccc1 (configuration not stated) | i | i | i | i
41 | Cc1cc(C(=O)CSc2nnc3ccccn23)c(C)n1Cc1ccccc1 | i | i | i | i
42 | Cc1noc(C)c1S(=O)(=O)Nc1ccc2c(c1)C(=O)N([C@H](C)CO)C[C@H](C)[C@H](CN(C)Cc1ccncc1)OCCCC[C@H](C)O2 | i | i | i | i
43 | C[C@@H]1CN([C@H](C)CO)C(=O)c2cc(N(C)C)ccc2O[C@@H]1CN(C)Cc1ccncc1 | i | i | i | i
44 | COc1ccc(S(=O)(=O)N(C)C[C@H]2Oc3ccc(NC(=O)Cc4cn(C)c5ccccc45)cc3C(=O)N([C@@H](C)CO)C[C@H]2C)cc1 | i | i | i | i
45 | C[C@H]1CCCCO[C@@H](CN(C)S(=O)(=O)c2ccccc2)[C@@H](C)CN([C@@H](C)CO)C(=O)c2cc(NS(C)(=O)=O)ccc2O1 | i | i | i | i
46 | Cc1cc2nc(-c3ccc(Cl)c(NC(=O)COc4ccccc4)c3)oc2cc1C | i | i | i | i
47 | COc1ccc([Si](C)(C)[C@@H]2[C@@H](CCO)O[C@]3(C(=O)N(Cc4ccccc4)c4ccc(N5CCOC5=O)cc43)[C@H]2C)cc1 | i | i | i | i
48 | C[C@@H]1CN([C@@H](C)CO)C(=O)c2cccc(NC(=O)C3CCOCC3)c2O[C@H]1CN(C)Cc1ccccc1 | i | i | i | i
49 | C[C@@H]1CCCCO[C@H](CN(C)C(=O)CCC(F)(F)F)[C@@H](C)CN([C@@H](C)CO)C(=O)c2cc(NC(=O)Cc3ccccc3)ccc2O1 | i | i | i | i
50 | COc1ccc(COC[C@]23NC(=S)N[C@H](c4ccccc4O2)[C@H]3CO[Si](C)(C)C(C)(C)C)cc1 | i | i | nt | i

Continuation.
item | mol | c-Myc SMM | p53 mut binder | ID4 binder | STAT3 binder
51 | C[C@H](CO)N1C[C@H](C)[C@H](CN(C)S(=O)(=O)c2cn(C)cn2)Oc2ncc(-c3cc4ccccc4o3)cc2C1=O | i | i | i | i
52 | C[C@@H]1CN([C@@H](C)CO)C(=O)Cc2cc(NC(=O)CCN3CCOCC3)ccc2O[C@H]1CN(C)C(=O)Nc1ccccc1 | i | i | i | i
53 | O=C(CSc1nnc(-c2ccccc2)n1-c1ccccc1)Nc1cccc(F)c1 | i | i | i | i
54 | C[C@@H]1CN([C@H](C)CO)C(=O)c2cccc(NC(=O)Nc3cccc4ccccc34)c2O[C@@H]1CN(C)Cc1ccc(C(=O)O)cc1 | i | i | i | i
55 | CN1CCN(S(=O)(=O)c2ccc(Sc3nc4ccccc4[nH]3)c3nsnc23)CC1 | i | i | + | i
56 | Cc1noc(C)c1NC(=O)N(C)C[C@@H]1OCCCC[C@H](C)Oc2ccc(NC(=O)C3CCCCC3)cc2C(=O)N([C@@H](C)CO)C[C@H]1C | i | i | nt | i
57 | Cc1ccc(N2CC(C(=O)NCc3cccnc3)CC2=O)cc1 (configuration not stated) | i | i | i | i
58 | CC(C)NC(=O)Nc1ccc2c(c1)C(=O)N([C@H](C)CO)C[C@@H](C)[C@@H](CN(C)C)OCCCC[C@H](C)O2 | i | i | i | i
59 | CCOC(=O)c1c(C2COc3ccccc3O2)csc1NC(=O)c1ccccc1 (configuration not stated) | i | i | i | i
60 | C=CC(C)(CC/C=C(\C)C(=O)O)O[C@@H]1O[C@H](C)[C@@H](O)[C@H](O)[C@H]1O (some centres not stated) | i | i | i | i
61 | C[C@H]1CN([C@@H](C)CO)C(=O)c2cc(NC(=O)Cn3cnnn3)ccc2O[C@@H]1CN(C)C(=O)NC1CCCCC1 | i | i | i | i
62 | CC(C)NC(=O)Nc1ccc2c(c1)C(=O)N([C@H](C)CO)C[C@H](C)[C@H](CN(C)Cc1ccccc1)OCCCC[C@@H](C)O2 | i | i | i | i
63 | COc1ccc(NC(=O)Nc2ccc3c(c2)C(=O)N([C@@H](C)CO)C[C@@H](C)[C@H](CN(C)S(=O)(=O)c2ccc(OC)cc2)O3)cc1 | i | i | i | i
64 | O=C(Cc1coc2ccc3ccccc3c12)Nc1cccnc1 | i | i | i | i
65 | Cc1noc(C)c1NC(=O)Nc1cccc2c1O[C@H](CN(C)Cc1ccc(C(=O)O)cc1)[C@@H](C)CN([C@H](C)CO)C2=O | i | i | i | i
66 | O=C(CN1C(=O)c2ccccc2S1(=O)=O)Nc1ccc(Cl)cc1 | i | i | i | i
67 | C[C@H](CO)N1C[C@H](C)[C@@H](CN(C)Cc2ccccc2)Oc2ccc(N(C)C)cc2C1=O | i | i | i | i
68 | COc1ccc(CN(C)C[C@H]2Oc3c(NS(=O)(=O)c4cn(C)cn4)cccc3C(=O)N([C@@H](C)CO)C[C@@H]2C)cc1 | i | i | i | i
69 | C[C@@H]1CN([C@H](C)CO)C(=O)Cc2cc(NC(=O)NC3CCCCC3)ccc2O[C@@H]1CN(C)C(=O)Nc1ccc(F)cc1 | i | i | i | i
70 | CC(=O)Oc1cccc(C(=O)O)c1OC(C)=O | i | i | i | i

Molecules listed so far that contain an NH in an aromatic ring, in the order listed:
item | mol | c-Myc SMM | p53 mut binder | ID4 binder | STAT3 binder
12 | CC(C)CNc1nc(Oc2ccc(=O)[nH]n2)nc(N(C)C)n1 | i | i | i | i
38 | COc1ccccc1C(=O)Nc1c(C)[nH]c(=O)[nH]c1=O | i | i | i | i
55 | CN1CCN(S(=O)(=O)c2ccc(Sc3nc4ccccc4[nH]3)c3nsnc23)CC1 | i | i | + | i

Going on with the list:
item | mol | c-Myc SMM | p53 mut binder | ID4 binder | STAT3 binder
71 | C[C@@H]1CCCCO[C@@H](CN(C)S(=O)(=O)c2ccc(F)cc2)[C@H](C)CN([C@@H](C)CO)C(=O)c2cc(NC(=O)c3ccncc3)ccc2O1 | i | i | i | i
72 | C[C@@H]1CN([C@@H](C)CO)C(=O)Cc2cc(NC(=O)CCC(F)(F)F)ccc2O[C@H]1CN(C)Cc1ccc2c(c1)OCO2 | i | i | i | i
73 | CCO[C@H]1OC(C(=O)NC2CC2)=C[C@@H](C2CCCCC2)[C@@H]1CCCO | i | i | i | i
74 | Cc1cc(C)c(S(=O)(=O)NCCN2CCN(S(=O)(=O)c3c(C)cc(C)cc3C)CC2)c(C)c1 | i | i | i | i
75 | O=C1O[C@@H](c2ccccc2)[C@@H](c2ccccc2)N2[C@@H](c3ccc(OCCO)cc3)[C@]3(C(=O)Nc4ccc(C#CC5(O)CCCCCC5)cc43)[C@@H](C(=O)NC[C@H](O)c3ccccc3)[C@H]12 | i | i | i | i
76 | COc1ccc(C)cc1S(=O)(=O)N(C)CC(=O)Nc1ccc(F)cc1 | i | i | i | i
77 | C=CCOC(=O)C1=C[C@H](c2coc3ccccc3c2=O)C[C@H](OCc2ccc(CO)cc2)O1 | + | i | nt | i
78 | CC(C)CCCC(C)(O)c1ccc(C(=O)O)cc1O (configuration not stated) | i | i | i | i

Reformatted with one line to a screen: entries from further up.
72: C[C@@H]1CN([C@@H](C)CO)C(=O)Cc2cc(NC(=O)CCC(F)(F)F)ccc2O[C@H]1CN(C)Cc1ccc2c(c1)OCO2
73: CCO[C@H]1OC(C(=O)NC2CC2)=C[C@@H](C2CCCCC2)[C@@H]1CCCO

| Assay by compound | 72 | 73 |
| --- | --- | --- |
| c-Myc SMM | i | i |
| p53 mut binder | i | i |
| ID4 binder | i | i |
| STAT3 binder | i | i |
